# Screens: PubChem BioAssay, National Center for Advancing Translational Sciences (NCATS)
# EPAC2 antag – validation of human EPAC2 antagonists. Q8WZA2. EPAC2 Rap1B BODIPY-GDP exchange, fluorescence. Potency, µM (titrated, usually from 112 µM), for inactives: at the highest dose activity, negative = inhibition, most hits filed as inhibitors. 16,000 compounds, 1.7% hits; active = well fitted inhibition curve with a large enough effect; inconclusive = small, poorly fitted or top-dose-only effect; inactive = no such curve, though single readings can be large or run the other way;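 also: 100% = activation by cAMP agonist control; nearly all actives have a fitted effect of over 40% in size; the record reuses the description of the EPAC1 agonist screen; inactives centre near -10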
# Target sequence (Q8WZA2 whole entry, looked up): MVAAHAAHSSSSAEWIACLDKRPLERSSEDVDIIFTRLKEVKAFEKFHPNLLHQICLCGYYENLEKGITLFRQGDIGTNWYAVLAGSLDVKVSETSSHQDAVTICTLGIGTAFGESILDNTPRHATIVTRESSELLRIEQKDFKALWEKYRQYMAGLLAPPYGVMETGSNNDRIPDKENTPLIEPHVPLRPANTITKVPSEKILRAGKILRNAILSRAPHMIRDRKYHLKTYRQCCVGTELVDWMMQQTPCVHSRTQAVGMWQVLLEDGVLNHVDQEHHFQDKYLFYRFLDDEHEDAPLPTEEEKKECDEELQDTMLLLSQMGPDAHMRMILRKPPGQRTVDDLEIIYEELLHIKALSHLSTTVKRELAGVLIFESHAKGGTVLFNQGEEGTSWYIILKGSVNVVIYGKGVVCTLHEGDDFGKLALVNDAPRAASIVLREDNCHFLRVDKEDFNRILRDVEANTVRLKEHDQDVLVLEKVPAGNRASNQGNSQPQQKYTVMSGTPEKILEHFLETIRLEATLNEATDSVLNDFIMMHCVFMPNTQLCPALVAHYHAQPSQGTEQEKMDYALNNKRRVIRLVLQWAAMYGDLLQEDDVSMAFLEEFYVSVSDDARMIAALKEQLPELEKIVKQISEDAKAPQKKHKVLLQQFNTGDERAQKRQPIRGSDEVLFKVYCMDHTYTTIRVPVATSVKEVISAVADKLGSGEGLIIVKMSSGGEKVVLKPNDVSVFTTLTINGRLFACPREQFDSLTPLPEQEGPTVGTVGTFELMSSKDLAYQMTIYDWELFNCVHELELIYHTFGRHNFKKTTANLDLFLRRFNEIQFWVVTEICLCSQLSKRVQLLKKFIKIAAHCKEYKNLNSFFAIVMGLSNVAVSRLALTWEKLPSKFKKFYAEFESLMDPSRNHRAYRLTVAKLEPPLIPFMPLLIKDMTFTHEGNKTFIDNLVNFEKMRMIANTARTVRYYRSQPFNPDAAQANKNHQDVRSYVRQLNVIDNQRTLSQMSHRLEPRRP
#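 Normalized against a 6.5 mM cAMP agonist control, compounds were tested on 100 nM EPAC2 exchanging Rap1B-bound BODIPY-GDP (250 nM) for 50 uM GDP. Fluorescence drop (ex 480, em 540 nm) was tracked at room temperature over 30 min at 5-min intervals.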
# Active calls of the source: *; u = inconclusive; & = joins results of further samples; ! = repeats disagree; [ ] = dose if it differs, or a comment. Potency is read from the fitted curve at half-maximal effect.
cpd	SMILES	EPAC2 antag
1	O=C(O)C(S)[C@@H](S)C(=O)O (stereo partly specified)	2.9%
2	COCCn1c(=O)cnc2cnc(Nc3ccccc3)nc21	4.8%
3	CS(=O)(=O)N1CCC2(CCCN(c3ccccn3)C2)CC1	-24.8%
4	COc1cccc(-c2nccc(-n3ccnc3)n2)c1	-20.2%
5	CC(C)CN1CCC(=O)N(CCSc2ccccc2)CC1	-12.9%
6	COc1ccc(C(=O)CCC(=O)O)c2ccccc12	6.5%
7	O=C1CC[C@H](O)CCN1[C@H](CSc1ccc(Br)cc1)Cc1ccccc1	-31.7%
8	Fc1ccc(Nc2ncnc3ccc(-c4ccoc4)cc23)cc1	-30.7%
9	FC(F)(F)c1ccccc1-c1nccc(NCCN2CCOCC2)n1	-15.7%
10	CN1CCCC(CN(C)C(=O)c2cnn(-c3nccc(-c4ccccc4C(F)(F)F)n3)c2C2CC2)C1 (stereo unspecified)	-23.8%
11	COC(=O)C1N2C(=O)[C@@H](NC(=O)COc3ccccc3)[C@H]2SC1(C)C (stereo partly specified)	3.4%
12	O=S1(=O)CCO[C@H]2Cc3ccccc3[C@H]2N1Cc1cccc(C(F)(F)F)c1	28.2µM*
13	CC1(C)CCC=[N+]1[O-]	14.5%
14	Cc1cnc(C)c(-c2ccc(F)c3c2OC(CNC(=O)Cc2c(F)cccc2F)C3)n1 (stereo unspecified)	2.3%
15	CN(C)c1ncc2nc(-c3cccs3)c(=O)n(Cc3cccs3)c2n1	-7.7%
16	O=C(C[N+]1(CCc2ccccc2)CCOCC1)c1cccc([N+](=O)[O-])c1	7.1%
17	Cc1nc(CC(=O)N2CCC(n3c(C4CCC4)nc4cccnc43)CC2)cs1	-15.2%
18	CS(=O)(=O)N1CCC2(CCN(c3ccccn3)CC2)CC1	-18.6%
19	COC(=O)c1cc(CNC(=O)c2ccncc2)cc(NC(=O)c2ccccc2Cl)c1	u
20	COc1cc(NS(C)(=O)=O)ccc1Nc1c2ccccc2nc2ccccc12	u
21	COc1cc(OC)c2cc(-c3ccncc3)cnc2c1	-26.3%
22	C=C1C[C@]23C[C@@]1(O)CC[C@H]2[C@@]12C=C[C@H](O)[C@@](C)(C(=O)O1)[C@H]2[C@@H]3C(=O)O	-43.0%[56.6 µM]
23	CN(C)c1ncc2nc(-c3ccccc3)c(=O)n(C)c2n1	-26.7%
24	CCOc1cc(-c2nccc3cc(OC)c(OC)cc23)cc(OCC)c1OCC	u
25	COc1cc2oc(=O)c3c4c(cc5ccc(c1CCN(C)C)c2c53)OCO4	-13.6%

# (cont.)
cpd	SMILES	EPAC2 antag
26	O=C(Nc1ccccc1)N1CCC2(CC1)CCN(C(=O)c1ccncc1)CC2	-20.3%
27	COc1ccc(CNc2ncnc3ccc(-c4ccccc4OC)cc23)c(OC)c1	-15.0%
28	O=C(C[C@H]1C(=O)N(CCc2ccccc2)C[C@@H]1Cc1ccccc1)Nc1ccccc1	u
29	Ic1ccc(N2CCN(Cc3c[nH]c4ncccc34)CC2)cc1	-7.8%&-4.7%
30	CC(C)c1c(C(=O)N(C)C2CCN(C)CC2)cnn1-c1nccc(-c2ccco2)n1	-17.3%
31	CCOC(=O)c1ccc(NC(=O)CN2CCCCC2)cc1	13.2%
32	COC(=O)N1CCC2(CC1)CCN(c1cccc(-c3ccccc3)c1)CC2	-29.0%
33	Cc1cc(C)c(C(=O)NCc2nc(-c3cccc(NC(=O)C4CCCN(C)C4)c3)oc2C)[nH]1 (stereo unspecified)	2.1%
34	CCCCCCCCCCCCCCCCCCOCC(O)CO (stereo unspecified)	-4.2%
35	C=C(c1ccc(C(=O)O)cc1)c1cc2c(cc1C)C(C)(C)CCC2(C)C	u
36	COc1ccc(CNc2ncncc2-c2ccccc2OC)c(OC)c1	u
37	COc1cc(-c2cccc(OC)c2OC)cc2c1OCCN(Cc1cn[nH]c1-c1ccc(Cl)cc1)C2	u
38	O=C(NC1CCN(Cc2ccccc2)CC1)c1ccc(I)cc1	-5.3%&-30.5%
39	O=c1cc(-c2cccc(O)c2)oc2ccc(O)cc12	-15.3%
40	CC(C)(C)CC(=O)OCC(=O)[C@@]12OC(C)(C)O[C@@H]1C[C@H]1[C@@H]3CCC4=CC(=O)C=C[C@]4(C)[C@@]3(F)[C@@H](O)C[C@@]12C	1.4%
41	C/C=C1\C2C=C(C)C[C@@]1(N)c1ccc(=O)[nH]c1C2	-0.5%
42	COc1ccc(CN(CCN(C)C)c2ncccn2)cc1	-6.5%
43	Cc1cc(C)c(/C=C2\C(=O)Nc3ccccc32)[nH]1	131.2%&58.9%[activator]
44	CC(CCC(=O)O)C1CCC2C3CC(O)[C@@H]4CC(O)CC[C@]4(C)C3CC[C@@]12C (stereo partly specified)	-13.6%
45	CC(=O)[C@@]1(O)CC[C@H]2[C@@H]3C[C@H](C)C4=CC(=O)CC[C@]4(C)[C@H]3CC[C@@]21C	-14.7%
46	CC(=O)O[C@@]1(C(C)=O)CCC2C3C=C(C)C4=CC(=O)CCC4(C)C3CCC21C (stereo partly specified)	-7.6%
47	Cc1cc(CNC(=O)c2cnn(-c3nccc(-c4ccc5c(c4)OCO5)n3)c2C2CC2)on1	-4.9%
48	CC(C)(C)C(=O)OCC(=O)[C@H]1CC[C@H]2[C@@H]3CCC4=CC(=O)CC[C@]4(C)[C@H]3CC[C@]12C	-17.0%
49	O=C(CCC1CCN(Cc2ccccc2)CC1)c1ccc2c(c1)NCCCC2	-7.9%
50	O=S(=O)(NCc1nc(N2CCCC2)c2cc(Cl)ccc2n1)c1ccccc1OC(F)(F)F	-16.9%

# Next compounds follow:
cpd	SMILES	EPAC2 antag
51	N#Cc1ccc(CN2CC[C@@]3(CCCN(C(=O)c4cccc(F)c4)C3)C2)cc1	-23.8%
52	COc1cccc(-c2cncnc2NCCc2c[nH]c3ccc(OC)cc23)c1	u
53	CC1(C)CC2C1CCC1(C)OC2(C)CCC1O (stereo unspecified)	-11.7%
54	Cc1cnc(-n2ncc(C(=O)N(CCO)C(C)C)c2-c2cccs2)nc1-c1ccc(F)cc1	-10.4%
55	CCCCOc1ccc(OCCCN2CCOCC2)cc1	-21.6%
56	CN(C)Cc1ccccc1-c1ccc2ncnc(N(C)Cc3ccco3)c2c1	-26.3%
57	O=C([C@@H]1CC=C[C@@H]2CCN(C3CC3)C(=O)[C@@H]21)N1CCN(c2ccccc2)CC1	u
58	Cc1nc(C(C)NC2CCN(c3cccc(NC(=O)c4ccncc4)c3)CC2)cs1 (stereo unspecified)	-17.9%
59	Cc1noc(NS(=O)(=O)c2ccc(N)cc2)c1C	-9.1%&14.7%&-3.9%&-15.6%
60	Cc1ccc(CN2CCCOCCS2(=O)=O)cc1	-2.6%
61	CCCOC(=O)N[C@@H]1C(=O)N2C(C(=O)OCCC)=C(C)CS[C@H]12	6.0%
62	CC(=O)O[C@@H]1C(=O)O[C@@H]2[C@H]1OC(=O)[C@@H]2OC(C)=O	17.1%
63	Nc1ncnc2c1nc(Br)n2[C@@H]1O[C@H]2COP(=O)(O)O[C@@H]2[C@@H]1O	1.26µM*
64	Cc1c(C(=O)NCCN2CCC(c3ccccc3)CC2)cnn1-c1nccc(-c2cccs2)n1	-26.3%
65	Cn1cccc1C(=O)N1CCC[C@@]2(CCN(c3ccccc3)C2)C1	u
66	COc1ccc(C(=O)NCCN2Cc3cc(C)ccc3OC(C)C2)c(OC)n1 (stereo unspecified)	-32.1%
67	CC1(C)CCC2=C(O1)c1ccccc1C(=O)C2=O	28.2µM*!
68	NCCCC[C@H](NC(=O)[C@@H]1CCCN1C(=O)[C@@H]1CSSC[C@H](N)C(=O)N[C@@H](Cc2ccc(O)cc2)C(=O)N[C@@H](Cc2ccccc2)C(=O)N[C@@H](CCC(N)=O)C(=O)N[C@@H](CC(N)=O)C(=O)N1)C(=O)NCC(N)=O	-12.3%&22.9%
69	CCOCCn1c(N2CCCN(C)CC2)nc2ccccc21	8.7%
70	COc1cccc(-c2nc(NCc3ccccc3)c3ccccc3n2)c1	u
71	Clc1ccc(C(c2ccc(Cl)cc2)n2cc[n+](CC(OCc3ccc(Cl)cc3Cl)c3ccc(Cl)cc3Cl)c2)cc1 (stereo unspecified)	-16.8%
72	COCC(=O)N1CCC2(CCCN(Cc3nccs3)C2)CC1	-18.5%
73	c1ccc(Cc2nnc3n2CCN(Cc2cnc(-c4ccccc4)s2)CC3)cc1	6.3%
74	COc1cccc(-c2cnc(-c3ccncc3)nc2C2CCN(C(=O)Cc3csc(C)n3)CC2)c1	3.4%
75	O=C(C[n+]1c(Cl)cc(Cl)c2ccccc21)c1ccccc1	-20.2%

# Five compounds picked at random from the list so far, as already listed:
cpd	SMILES	EPAC2 antag
57	O=C([C@@H]1CC=C[C@@H]2CCN(C3CC3)C(=O)[C@@H]21)N1CCN(c2ccccc2)CC1	u
64	Cc1c(C(=O)NCCN2CCC(c3ccccc3)CC2)cnn1-c1nccc(-c2cccs2)n1	-26.3%
54	Cc1cnc(-n2ncc(C(=O)N(CCO)C(C)C)c2-c2cccs2)nc1-c1ccc(F)cc1	-10.4%
51	N#Cc1ccc(CN2CC[C@@]3(CCCN(C(=O)c4cccc(F)c4)C3)C2)cc1	-23.8%
65	Cn1cccc1C(=O)N1CCC[C@@]2(CCN(c3ccccc3)C2)C1	u

# (more compounds)
cpd	SMILES	EPAC2 antag
76	Cc1cnc(C)c(-c2ccc3c(c2)CC(CNC(=O)Cc2c(C)[nH]c4ccccc24)O3)n1 (stereo unspecified)	-16.5%
77	C[C@]12CC[C@@H]3c4ccc(O)cc4CC[C@H]3[C@@H]1CC[C@@H]2OP(=O)(O)O	1.4%
78	CCOC(=O)[C@H](CS)NCCN[C@@H](CS)C(=O)OCC	7.5%
79	Cc1ccccc1-c1cncnc1N1CCNCC1	-5.2%
80	CC(=O)OC1CC2C(C)(C)C(O)C=C[C@@]2(C)C2CC[C@@]3(C)C(c4ccoc4)OC(=O)C4OC43[C@]12C (stereo partly specified)	-14.5%
81	CCOC(=O)c1ccc(N(C(=O)c2ccccc2)c2ccccc2)cc1	-20.2%
82	COC(=O)c1c(OCc2ccccn2)cc(=O)n2c1CCN(Cc1ccc3nsnc3c1)CC2	-19.4%
83	Clc1ccccc1-c1nccc(NCc2cccs2)n1	-17.1%
84	Cc1ncc2c(c1CNC(=O)c1ccc3c(c1)OCO3)CCN(C(=O)c1ccoc1)C2	-1.1%
85	O=C(c1cccc(F)c1)N1CCC[C@@]2(CCN(c3cccc(-c4ccccc4)c3)C2)C1	-27.9%
86	O=C1CCNCCN1[C@H](CO)Cc1ccccc1	-7.9%
87	CC[C@H](/C=C/[C@@H](C)[C@H]1CC[C@H]2C3CC=C4C[C@@H](O)CC[C@]4(C)C3CC[C@]12C)C(C)C (stereo partly specified)	-12.6%
88	CC1C(=O)CC2C3(C)CCC2(C(C)C(=O)O)C(=O)C13 (stereo unspecified)	23.6%
89	CN(C)c1ncc2nc(-c3cccc(C#N)c3)c(=O)n(C)c2n1	2.7%
90	O=C(O)C1Cc2c([nH]c3ccccc23)C(c2coc3ccccc3c2=O)N1 (stereo unspecified)	-26.7%
91	CCCCCCCCCCCCCCCCC(C(=O)O)C(O)(CC(=O)O)C(=O)O (stereo unspecified)	54.3%
92	Cc1nc2cnc(N3CCN(C)CC3)nc2n(-c2ccccc2)c1=O	-8.2%
93	COC(=O)[C@@H]1CCCN1C(=O)c1c(OC)cc(=O)n2c1CCN(Cc1cc(OC)ccc1F)CC2	-3.2%
94	CNC[C@@H](O)[C@@H](O)[C@H](O)[C@H](O)CO	-1.0%
95	COc1ccc(CCN(C)C(=O)c2cnn(-c3nccc(-c4ccc(C)o4)n3)c2C)cc1OC	u
96	CCNc1ncc2nc(-c3ccccc3)c(=O)n(Cc3cccc(OC)c3)c2n1	-5.5%
97	CCCC[C@@H](C=O)NC(=O)[C@H](CC(C)C)NC(=O)[C@H](CC(C)C)NC(C)=O	-4.3%[151 µM]
98	COc1cc2nc(CC(O)c3nc4cc(OC)c(OC)cc4[nH]3)[nH]c2cc1OC (stereo unspecified)	-1.3%
99	COCCn1c(=O)c(CCc2ccccc2)nc2cnc(Oc3ccc(OC)cc3)nc21	-9.2%
100	C=C[C@@H]1c2cc(C)ccc2N(S(=O)(=O)c2ccc(C)cc2)[C@H](c2ccccc2)C1(C#N)C#N	-29.5%

# Along the list, from the results shown:
# EPAC2 antag, nos. 40–43, in order: 1.4%, -0.5%, -6.5%, 131.2%&58.9%[activator]

# More entries:
cpd	SMILES	EPAC2 antag
101	CCC(C)(C)C(=O)O[C@@H]1C[C@@H](C)C=C2C=C[C@H](C)[C@H](CC[C@@H]3C[C@@H](O)CC(=O)O3)[C@H]21	50.1µM*
102	Cc1cc(-c2ccnc(-n3ncc(C(=O)NCC4COCCO4)c3C3CC3)n2)c(C)s1 (stereo unspecified)	-27.2%
103	Fc1ccc(Nc2ncncc2-c2ccccc2C(F)(F)F)cc1	-21.2%
104	CC(C)NCC(O)c1ccc(O)c(O)c1 (stereo unspecified)	u
105	COc1cccc(C2(CC(=O)N3CCC(c4nc5ccc(F)cc5[nH]4)CC3)CC(=O)N(C)C2=O)c1 (stereo unspecified)	-5.5%
106	COc1ccc(C[C@H](N)C(=O)N[C@H]2[C@@H](O)[C@H](n3cnc4c(N(C)C)ncnc43)O[C@@H]2CO)cc1	-9.3%
107	Cc1nn(C)cc1CN1CCOc2ccc(C(C)(O)COc3ccccc3)cc2C1 (stereo unspecified)	-26.8%
108	N[C@H](C(=O)O)[C@@H]1CC(Cl)=NO1	33.4%
109	COc1ccc2[nH]cc(CCNc3ncnc4ccc(-c5cccnc5)cc34)c2c1	-24.3%
110	O=C1CC(c2ccccc2)Oc2ccccc21 (stereo unspecified)	u
111	CN(C)C(=O)Oc1ccc[n+](C)c1	-3.2%&1.2%
112	N[C@@H](CSCCCO)C(=O)O	-11.6%
113	COc1ccc(-n2c(=O)c(-c3cccs3)nc3cnc(Nc4ccccc4)nc32)cc1	12.1%

# Some of the compounds tested; rates above refer to the full screens.
